# AID923: qHTS Assay for Allosteric/Competitive Inhibitors of Caspase-1: Spectroscopic Profiling in AFC Spectral Region; compound fluorescence, AFC spectral region (405/520 nm); almost no hit is shown here; Potency, µM (top dose mostly 57.5 µM), for the others: top-dose fluorescence increase, most hits filed as activators; actives 1.1% (n = 75,000); AID 923, 2007; active = well fitted activation curve with a large enough effect;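 also: 0% is about no effect; scaled to a free AFC standard on each plate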
#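 Titrations up to 57 uM read every 20 sec for 3 min (405/520 nm) with 50 nM caspase 1 and 5 uM Ac-WEHD-AFC, pH 7.5 HEPES buffer. Fluorescence-vs-time intercept gave baseline, scaled against on-plate AFC standard.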
# Numbers without * were called inactive. Potency is read from the fitted curve at half-maximal effect.
SMILES,AID923
CC1CCC(C(C)C)C(=O)C1 (stereo unspecified),-0.8%
COc1ccccc1OCCNCC(O)COc1cccc2[nH]c3ccccc3c12 (stereo unspecified),0.0%
CC1CC2C3CC(F)C4=CC(=O)C=C[C@@]4(C)[C@@]3(F)C(O)C[C@]2(C)[C@]1(O)C(=O)COC(=O)C(C)(C)C (stereo partly specified),-1.7%
COc1ccc(-c2cc(=O)c3c(O)c(OC)c(OC)c(OC)c3o2)cc1OC,-1.7%
CC[C@@]1(O)CC2CN(CCc3c([nH]c4ccccc34)[C@](C(=O)OC)(c3cc4c(cc3OC)N(C)C3[C@@](O)(C(=O)OC)C(OC(C)=O)[C@]5(CC)C=CCN6CC[C@@]43C65)C2)C1 (stereo partly specified),1.9%
CC1(C)OC2CC3C4CC(F)C5=CC(=O)C=C[C@@]5(C)[C@@]4(F)C(O)C[C@@]3(C)[C@]2(C(=O)CO)O1 (stereo partly specified),-1.3%
COc1ccc2ccc(=O)oc2c1,-2.2%
Cc1cc(C)cc(OCC2CNC(=O)O2)c1 (stereo unspecified),-1.3%
Nc1c2c(nc3ccccc13)CCCC2O (stereo unspecified),-1.6%
C#C[C@@]1(O)CCC2C3CCC4=CC(=O)CCC4C3CC[C@@]21CC (stereo partly specified),-2.9%

# Quoted from the listing.
# `C#C[C@@]1(O)CCC2C3CCC4=CC(=O)CCC4C3CC[C@@]21CC` (stereo partly specified) – AID923: -2.9%
# `CC1CC2C3CC(F)C4=CC(=O)C=C[C@@]4(C)[C@@]3(F)C(O)C[C@]2(C)[C@]1(O)C(=O)COC(=O)C(C)(C)C` (stereo partly specified) – AID923: -1.7%

# A section of the results above:
SMILES,AID923
CC1CCC(C(C)C)C(=O)C1 (stereo unspecified),-0.8%
COc1ccccc1OCCNCC(O)COc1cccc2[nH]c3ccccc3c12 (stereo unspecified),0.0%
CC1CC2C3CC(F)C4=CC(=O)C=C[C@@]4(C)[C@@]3(F)C(O)C[C@]2(C)[C@]1(O)C(=O)COC(=O)C(C)(C)C (stereo partly specified),-1.7%
COc1ccc(-c2cc(=O)c3c(O)c(OC)c(OC)c(OC)c3o2)cc1OC,-1.7%

# Some of the compounds tested (hit frequency here may not be typical).
